OX1R antagonist = OX1R (HCRTR1) antagonists, primary screen, fluorescence, CHO/OX1R cells, Fluo-8 calcium, orexin A; Orexin/Hypocretin receptor type 1 (Homo sapiens), O43613; Fluo-8 calcium fluorescence; inhibition, % at 5 µM; hit rate 0.43% among 330,000;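 active = inhibition above its plate's threshold, mean inhibition of all tested compounds on the plate plus 3 SD, cut at about 37% in these data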;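 also: 0% = orexin A challenge wells and 100% = SB-334867-A antagonist wells; not every result past the cut was called active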
Target sequence (O43613 whole entry, looked up): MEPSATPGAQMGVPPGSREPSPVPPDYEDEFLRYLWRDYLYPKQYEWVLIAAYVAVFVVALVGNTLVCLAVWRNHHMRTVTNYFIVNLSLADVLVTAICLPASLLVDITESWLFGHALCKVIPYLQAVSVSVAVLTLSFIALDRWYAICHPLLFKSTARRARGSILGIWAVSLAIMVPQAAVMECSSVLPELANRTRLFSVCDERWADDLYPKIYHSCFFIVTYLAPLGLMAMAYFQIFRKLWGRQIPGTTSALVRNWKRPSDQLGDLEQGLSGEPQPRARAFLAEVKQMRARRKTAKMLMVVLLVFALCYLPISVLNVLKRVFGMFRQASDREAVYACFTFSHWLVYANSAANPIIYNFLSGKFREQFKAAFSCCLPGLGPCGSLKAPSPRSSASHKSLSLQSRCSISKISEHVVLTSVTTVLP
Starred values were filed as active, the others as inactive. Some of the compounds tested, and most or all hits are left out here.

SMILES | OX1R antagonist
Cc1noc(C)c1S(=O)(=O)Nc1ccc(C(=O)NC2CCCCC2C)cc1 (configuration not stated) | -18.7
COc1ccc(-c2cc(NCCc3ccncc3)n3ncnc3n2)cc1 | -17.3
Cc1cccc(N2CCN(C(=O)CCCSc3nc4ccccc4[nH]3)CC2)c1C | 10.6
CC(C(=O)N1CCCC1)N1CCN(c2ccccc2O)CC1 (configuration not stated) | -15.1
COc1ccc(-c2noc(CCC(=O)O)n2)cc1 | -6.2
COc1ccc(-c2csc(NC(=O)C3CCCO3)n2)cc1 (configuration not stated) | -25.1
O=C(Nc1nccs1)c1ccc(Cl)c([N+](=O)[O-])c1 | -10.5
COc1ccc2nc(NC(=O)CSCc3c(C)noc3C)sc2c1 | -35.7
O=C(N/N=C/c1coc2ccccc2c1=O)c1cc2ccccc2o1 | -5.7
Cc1ccc(S(=O)(=O)Nc2nc(C)c(NC(=O)Nc3ccc(Cl)cc3Cl)s2)cc1 | 0.3

Compounds from the list above containing an aryl methoxy group (4):
SMILES | OX1R antagonist
COc1ccc(-c2cc(NCCc3ccncc3)n3ncnc3n2)cc1 | -17.3
COc1ccc(-c2noc(CCC(=O)O)n2)cc1 | -6.2
COc1ccc(-c2csc(NC(=O)C3CCCO3)n2)cc1 (configuration not stated) | -25.1
COc1ccc2nc(NC(=O)CSCc3c(C)noc3C)sc2c1 | -35.7

Next section
SMILES | OX1R antagonist
Cc1cc2c(cc1C)C(c1cc(Br)ccc1F)CC(=O)N2 (configuration not stated) | -11.7
CN1CCN(CCOc2ccc(Cc3ccccc3)cc2)CC1 | -15.8
CC(C)CC(=O)Nc1ccnc(-c2ccncc2)n1 | -9.8
COCCn1c(Sc2ccc(C)cc2)nc2c1c(=O)[nH]c(=O)n2C | -34.2
Cc1cc(C)nc(N2CCN(CC(=O)NCc3ccccc3)CC2)n1 | -4.5
Nc1nc(SCC(=O)c2ccc(F)cc2)n[nH]1 | -15.3
C=CCn1c(CCNC(=O)c2cccs2)nnc1SCC(=O)c1cccc([N+](=O)[O-])c1 | -23.4
CCN1C(=O)/C(=C2/C=Cc3ccccc3N2CC)SC1=S | -38.5
CCOC(=O)N/N=C/c1cn(Cc2ccc(Cl)cc2)c2ccccc12 | -14.3
C=CCNC(=O)NC(=O)COC(=O)COc1ccc(Br)cc1F | -18.1

Overlap with the part before: 3 entries; new compounds follow.
SMILES | OX1R antagonist
CCN1C(=O)/C(=C2/C=Cc3ccccc3N2CC)SC1=S | -38.5
CCOC(=O)N/N=C/c1cn(Cc2ccc(Cl)cc2)c2ccccc12 | -14.3
C=CCNC(=O)NC(=O)COC(=O)COc1ccc(Br)cc1F | -18.1
CCCCn1c(N)c(N(CCOC)C(=O)c2cnc(C)cn2)c(=O)[nH]c1=O | -1.5
Cc1nc2sc(C(c3ccc(F)cc3)N3CCN(C(=O)c4ccco4)CC3)c(O)n2n1 (configuration not stated) | -10.8
O=C(NCCCn1ncc2ccccc21)c1cc(COc2c(F)cccc2F)on1 | -11.4
O=C(COc1ccc2c(c1)OCO2)Nc1ccc2c(c1)oc1ccccc12 | -12.1
COc1ccc(NC(=S)N2CCCC(CO)C2)c(OC)c1 (configuration not stated) | 10.2
CCOC(=O)C(C)n1cnc2c(nnn2-c2ccc(OC)cc2)c1=O (configuration not stated) | -2.9
Cc1onc(-c2c(F)cccc2Cl)c1C(=O)N1CCN(S(C)(=O)=O)CC1 | -8.0
COc1cccc(C2NC(=O)c3sc(=S)n(-c4ccccc4)c3N2)c1 (configuration not stated) | -8.0
CC[C@@H]1CC=C[C@H]2[C@H]1C(=O)N(Cc1ccccc1)[C@H]2c1ccoc1 | -14.1
Cc1ccc(S(=O)(=O)N2CCCC2C(=O)NCc2ccco2)cc1 (configuration not stated) | -10.7
CC(=O)N(Cc1ccc(Br)cc1)c1cccc(C)c1C | -29.8
Cc1ccc(C(=O)c2cccc(N)c2)cc1C | 22.6
Cc1cc(C)cc(N2C(=O)CC(Sc3nnnn3-c3ccccc3)C2=O)c1 (configuration not stated) | -23.8
CC(C)(C)c1cnnn1-c1ccc(C=O)cc1 | -2.3
CCOC(=O)CNC(=O)c1c2c(nc3ccccc13)CCCC2 | -21.7
Cc1cc(C)cc(-n2ncc3c2CCCC3NC(=O)C2CCC2)c1 (configuration not stated) | -10.1
CCNS(=O)(=O)c1ccc(NC(=O)Cn2cc([N+](=O)[O-])cn2)cc1 | -5.8
CCOc1ccc(C(=O)COC(=O)c2cccc(-n3cnnn3)c2)cc1 | -20.0
Cc1cc(C)c2c(N)c(C(=O)Nc3ccccc3Cl)sc2n1 | -29.0
O=C(NCCCO)C(=O)NCc1ccccn1 | -1.4

3 entries out of the list above, arranged by the value under OX1R antagonist, highest first.
Structure	OX1R antagonist
CC(C)(C)c1cnnn1-c1ccc(C=O)cc1	-2.3
CCOC(=O)CNC(=O)c1c2c(nc3ccccc13)CCCC2	-21.7
Cc1cc(C)cc(N2C(=O)CC(Sc3nnnn3-c3ccccc3)C2=O)c1 (configuration not stated)	-23.8

Other results.
SMILES | OX1R antagonist
O=C(Nc1ccc(F)cc1)c1cccc(N2C(=O)C3C4C=CC(C4)C3C2=O)c1 (configuration not stated) | -23.6
CCn1cc(C(=O)NCc2ccco2)c2cc(OC)c(OC)cc2c1=O | -19.4
COc1ccc(C(=O)Nc2nc(C)cs2)cc1S(=O)(=O)N1CCCC1 | -15.7
COc1cc(C(=O)NC2CCN(CC(=O)NC3CCCCC3)CC2)cc(OC)c1OC | -18.8
CCn1c2ccccc2c2cc(NC(=O)CN(C)CC(=O)Nc3ccc(N4CCOCC4)cc3)ccc21 | -7.2
O=C(Cc1ccccc1)NNC1CC(=O)N(c2ccc(Oc3ccccc3)cc2)C1=O (configuration not stated) | -7.9
COc1ccc(C)cc1-n1c(SCC(=O)Nc2cc(C)on2)nc2sc(C)c(C)c2c1=O | -33.0
CCn1c(C)nnc1SCC(=O)Nc1nccs1 | -9.9
O=C(Cn1[nH]c(=O)c2ccccc2c1=O)N1CC=C(c2ccccc2)CC1 | -15.4
COc1ccc(/C(O)=C2/C(=O)C(=O)N(CCN3CCOCC3)C2c2cccnc2)cc1OC (configuration not stated) | -0.5
CC1CCCCC1NC(=O)CCNS(=O)(=O)c1cc(Br)cnc1N (configuration not stated) | -30.9
CCN(CCn1cccn1)C(=O)C1CCC(=O)N(CCN2CCOCC2)C1 (configuration not stated) | 1.1
CS(=O)(=O)NCCCc1ccccc1 | -4.0
C(=N\n1cnnc1)/c1ccc(-c2ccccc2)cc1 | -4.7
CCSc1nc2nn(-c3ccccc3)c(=O)c-2c2n1CCCCC2 | -29.5
CCSC1=C(C#N)C(c2cccc(O)c2)CC(=O)N1 (configuration not stated) | -10.6
CC1=C(C(=O)N2CCN(C(=O)c3ccco3)CC2)C2(CCC(C)CC2)OC1=O (configuration not stated) | -7.3
O=C1CCC(=O)N1OCCCCOc1ccccc1 | -1.5
Cc1csc2ncnc(N3CCN(C(=S)Nc4ccc(F)cc4F)CC3)c12 | 16.5
O=C(N/N=C/c1ccc(N2CCCC2)c([N+](=O)[O-])c1)c1cccnc1 | -19.1
Cc1nnc2n(c1=O)C(CS(=O)(=O)c1ccccc1)CS2 (configuration not stated) | -5.2
O=c1cc(O)c2c(=O)n(-c3ccccc3)c3ccccc3c2o1 | -10.9
CCCCOc1ccccc1C1C(C(N)=O)=C(C)Nc2nnnn21 (configuration not stated) | -12.5
CCCC(=O)Nc1nnc(SCC(=O)N2C(C)CCCC2C)s1 (configuration not stated) | -12.0
CCCCNC(=O)Nc1ccc(C2SCCS2)cc1 | -17.9
Cc1ccc(-c2csc(N(CCc3ccccc3)C(=O)COc3ccccc3)n2)cc1 | -1.0
COc1ccc(OC)c(N2C(=O)CC(Cc3ccc(Cl)cc3)C2=O)c1 (configuration not stated) | -39.4
CS(=O)(=O)N1CCCC(C(=O)NCCCN2CCc3ccccc3C2)C1 (configuration not stated) | -9.8
Cc1cc(=O)oc2cc(OCC(=O)OCC(=O)N(C)C3CCS(=O)(=O)C3)ccc12 (configuration not stated) | -16.4
COc1c(F)c(F)c(C(=O)O)c(Nc2cccc(C)c2)c1F | 0.3
COc1ccc(CN=C2NC(=O)CC(C(=O)Nc3cc(C)cc(C)c3)S2)cc1 (configuration not stated) | -4.7
CCCNC(=O)c1cn(CC)c2cc(N3CCN(C(=O)c4ccco4)CC3)c(F)cc2c1=O | -15.6
CCCNC(=O)Cn1c(=O)oc2cc(S(=O)(=O)N3CC(C)CC(C)C3)ccc21 (configuration not stated) | -15.1
O=c1cc(-c2ccc(Cl)cc2)oc(=O)[nH]1 | 5.0
CC1CCCCN1C(=O)CSc1nnc2c(n1)[nH]c1ccccc12 (configuration not stated) | -20.3
N#Cc1cc(N)ccc1Sc1ccc(Cl)cc1 | -3.9
Cc1ccc(S(=O)(=O)NCCS(=O)(=O)N2CCN(c3ccccc3)CC2)cc1 | 11.6
Cc1onc(-c2ccccc2Cl)c1C(=O)NC(=S)Nc1ccccc1C(N)=O | -14.9
Cc1cc(=O)[nH]c2nnc(-c3ccc(Cl)cc3)n12 | 17.4
COc1ccc(NC(=O)C2=NNC(=O)CC2)cc1S(=O)(=O)N1CCCCC1 | -7.8

The list goes on, starting with the last three of the part before.
SMILES | OX1R antagonist
Cc1onc(-c2ccccc2Cl)c1C(=O)NC(=S)Nc1ccccc1C(N)=O | -14.9
Cc1cc(=O)[nH]c2nnc(-c3ccc(Cl)cc3)n12 | 17.4
COc1ccc(NC(=O)C2=NNC(=O)CC2)cc1S(=O)(=O)N1CCCCC1 | -7.8
CCOc1ccc(OCCCC(=O)O)cc1 | -5.2
Cc1ccccc1S(=O)(=O)Cc1ccc(C(=O)NCc2ccco2)o1 | -24.4
CCn1cc([N+](=O)[O-])c(=O)c2cc(F)c(N3CCOCC3)cc21 | 1.9
O=C(COC(=O)c1cccc([N+](=O)[O-])c1)Nc1ccc(Cl)cn1 | -4.5
CN(CCc1ccccn1)C(=O)Nc1cc(Cl)cc(Cl)c1 | -4.9
Cc1nn2c(c1-c1ccccc1)N=C(c1ccco1)CC2c1ccccc1 (configuration not stated) | -17.7
O=C1/C(=C/c2ccco2)SC(=S)N1C1CCS(=O)(=O)C1 (configuration not stated) | -3.3
CCOC(=O)C1CCN(C(=O)COc2ccc(Br)cc2)CC1 | -0.8
O=C(c1ccccc1)N1CCC(c2nc(-c3ccc(S(=O)(=O)N4CCOCC4)cc3)no2)CC1 | -13.1
CS(=O)(=O)Nc1ccccc1C(=O)N1CCCC1 | -13.8
COc1ccccc1-n1ccn(CC(=O)Nc2ccc(C)cc2Cl)c(=O)c1=O | -10.1
O=C(c1cc(COc2cccc(C(F)(F)F)c2)on1)N1CCSCC1 | -9.5
CC1CCN(CCCNC(=O)c2ccc3c(=O)n(CCc4ccccc4)c(=O)[nH]c3c2)CC1 | -12.3
O=C(Nc1sc2c(c1C(=O)O)CCC2)c1cccc(Cl)c1 | -1.0
N/C(=N\OC(=O)c1cccnc1)c1ccccc1Cl | -21.9
O=C(O)Cn1c(P(=O)(O)c2ccccc2)nc2ccccc21 | -8.9
COc1cc(/C=N/NC(=S)NCc2ccco2)cc(OC)c1OC | -12.6
COc1ccc(F)cc1CN1CCN(C(=O)CCC(=O)Nc2nnc(CC(C)C)s2)CC1 | -25.4
O=C(NC1CCCCC1)N1CCc2ccccc2C1 | -17.2
Cc1ccc2cc(CN(CCO)Cc3nnnn3Cc3ccc(F)cc3)c(=O)[nH]c2c1 | -32.5
CC(C)CNC(=S)N(CCCN(C)C)Cc1cc2cc3c(cc2[nH]c1=O)OCCO3 | -7.4
O=C(Nc1cccc(O)c1)c1noc2c1CCCCC2 | -25.7
CCN(CC)c1ccc(/C=N/NC(=O)c2nnn(-c3nonc3N)c2-c2ccc(C)cc2)cc1 | 5.0
O=C(NCCSCc1ccc(Cl)cc1)c1cccs1 | -11.4
Cc1ccc(C(=O)NC(=S)NCC2CCCO2)cc1[N+](=O)[O-] (configuration not stated) | -7.7
Cc1ccc(NC(=O)Cc2nnc(SCC(=O)Nc3nncs3)n2C)cc1 | 6.4
Cc1cc(CNC(=O)CC2C(=O)NCCN2Cc2ccc(-c3ccccc3)cc2)nn1C (configuration not stated) | -21.4
CC1(C)CNc2cc(N)ccc2S1 | -13.1
Cc1noc(C)c1COc1ccc(C(=O)N2CCCC(C(N)=O)C2)cc1 (configuration not stated) | -5.9
Nc1ncnc(Nc2cc(Cl)cc(Cl)c2)c1[N+](=O)[O-] | -6.1
O=C(O)CCN1C(=O)c2ccc(NC(=O)CCc3ccccc3)cc2C1=O | 5.1
Nc1ccc(S(=O)(=O)N2CCCC2)cc1Cl | -7.6
COc1cc(/C=N/O)ccc1OCc1ccc([N+](=O)[O-])cc1 | -6.6
CCc1cccc2c3c([nH]c12)C(CC)(CC(=O)O)OCC3 (configuration not stated) | -6.6
CSC1=C(C#N)C(=O)NC(c2ccccc2O)S1 (configuration not stated) | 2.5
CC(CN1CCN(C)CC1)OC(=O)c1ccc(Cl)cc1 (configuration not stated) | 0.7
CC1=NN(C(N)=S)C(=O)C1N=Nc1cccc(C)c1 (configuration not stated) | -27.1
O=C(CCl)Oc1ccc2occ(C(=O)c3cccs3)c2c1 | 6.3
COc1ccc([C@H]2/C=C\CN(S(=O)(=O)c3ccc(C)cc3)[C@@H](C)C(=O)N2Cc2ccc(F)cc2)cc1 | -13.6
N#CC1=C2SCN(Cc3ccco3)CN2C(=O)CC1c1c(F)cccc1Cl (configuration not stated) | -21.4
CC1=C(C(=O)OCc2ccc3c(c2)OCO3)C(c2ccc(F)cc2)NC(=O)N1 (configuration not stated) | 0.4
COC(=O)NNC(=O)COc1ccc(Br)c(C)c1 | 4.6
O=C(NCC1CCCO1)c1ccc(NS(=O)(=O)c2cccs2)cc1 (configuration not stated) | 6.0
Cn1ncc2c(NCc3ccccc3)ncnc21 | 0.3
CCN(C(=O)CSc1nc2ccccc2c(=O)n1Cc1ccc(C)cc1)C1CCS(=O)(=O)C1 (configuration not stated) | -39.8
CCN1C(=O)C(F)(CC)C(=O)c2ccccc21 (configuration not stated) | -6.4
COCc1cc(C)nc(Nc2ccc(C)c(C)c2)c1C#N | -10.6
